Rango release inh: inhibition of RanGTP-driven Rango-importin beta dissociation; Potency, µM (titrated, usually from 46.1 µM), without a hit: at the highest dose activity change, negative = inhibition; Biochemical FRET Rango-importin beta, RanGTP-induced dissociation; AID 540253; 340,000 tested, 0.071% active; O95149+P62826; active means falling FRET ratio curve, often poorly fitted, with flat reads before Ran was added; inconclusive means other falling curves, or compound fluorescence or quenching; inactive means flat or rising ratio curve;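 also: potency is read from the fitted curve at half-maximal effect; % of control where 0% means no effect; nearly all actives have a fitted effect of over 45% in size; -100% = wells without RanGTP and RCC1; the record marks most hits as doubtful in a second field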
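Two FRET readings bracket the reaction: one 5 min after compound meets Rango–importin beta, another 45 min after RanGTP-RCC1 (0.6 uM Ran, 0.2 uM RCC1, 2 mM GTP) is added. Only the second defines inhibition.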
Rango complex inh: Rango-importin beta binding inhibition. Q14974. Rango CFP/YFP FRET sensor + importin beta, 45 min. Potency, µM (series often up to 92.2 µM), for the others: top-dose inhibition of complex formation. 340,000 tested, 0.031% active. AID 540263; active = rising FRET ratio curve, often small or poorly fitted; inconclusive = mostly compound fluorescence or quenching in the first reads; inactive = flat curves in all reads;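 also: potency is read from the fitted curve at half-maximal effect; 0% = DMSO wells and 100% = buffer wells lacking importin beta; nearly all actives have a fitted effect of over 15% in size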
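Inhibition scored from the CFP 486 nm/YFP 530 nm FRET ratio 45 min after adding 0.125 microM importin beta to 50 nM Rango biosensor preincubated 5 min with compound (room temperature, PBS with DTT, Tween-20, BSA). No-importin wells as positive control.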
GLA inh pH 4.5: alpha-galactosidase A (human) inhibition, pH 4.5; activity change, negative = inhibition, % at 105 µM; P06280; 230,000 tested, under 10 active; purified enzyme, 4-MU-alpha-Gal fluorescence, pH 4.5; AID 1467; inconclusive = small, poorly fitted or top-dose-only inhibition, or a rising curve; inactive = flat fitted curve, though single readings scatter; no compound was filed as active;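 also: 0% = full activity with enzyme and -100% = basal without enzyme; dose as in the result columns while the protocol names 77 µM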
Target sequence (P06280 whole entry, looked up): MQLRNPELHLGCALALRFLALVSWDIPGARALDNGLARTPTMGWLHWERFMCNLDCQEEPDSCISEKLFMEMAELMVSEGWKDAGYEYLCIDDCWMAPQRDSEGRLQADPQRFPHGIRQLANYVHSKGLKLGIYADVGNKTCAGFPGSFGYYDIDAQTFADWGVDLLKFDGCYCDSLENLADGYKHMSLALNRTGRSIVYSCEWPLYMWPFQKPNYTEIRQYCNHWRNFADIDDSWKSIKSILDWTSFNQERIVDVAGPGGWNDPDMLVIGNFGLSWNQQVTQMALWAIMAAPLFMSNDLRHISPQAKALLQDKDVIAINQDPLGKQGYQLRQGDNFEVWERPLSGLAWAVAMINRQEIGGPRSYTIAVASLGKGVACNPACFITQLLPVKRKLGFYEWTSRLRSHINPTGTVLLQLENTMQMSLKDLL
miR-21 FLuc: miR-21 reporter, rising signal; HeLa miR-21 FLuc reporter, luciferase, 48 h; Potency, µM (doses to about 38.3 µM), for the others: at the top dose reporter change, positive = more light; 340,000 tested, under 10 active; active = well fitted rising curve with a large enough effect; inconclusive = small, poorly fitted or top-dose-only effect; inactive = no such curve, though single readings can be large or run the other way;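 also: % of control where 0% means no effect; miR-21 action dims this reporter so a rising signal means less miR-21 action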
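Luminescence from a firefly luciferase reporter carrying a miR-21 binding site downstream, stably expressed under a CMV promoter in HeLa cells that make miR-21 endogenously, reports miRNA modulation after 48 h compound exposure up to approximately 40uM final.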
* marks the source's active call; other numbers are inactive results; ? = inconclusive; . = not tested or not shown. The list is partial; rates above refer to the full screens.

SMILES	Rango release inh	Rango complex inh	GLA inh pH 4.5	miR-21 FLuc
CCOCCCNC(=O)C(c1ccc(OC)cc1)N(Cc1ccc2c(c1)OCO2)C(=O)c1cnccn1 (stereo not given)	-16%	1.3%	-1	-3%
Cc1noc(C)c1C(=O)Nc1nc(-c2ccc(F)c(F)c2)cs1	-4%	-0.4%	.	.
O=C1NC2(CCCC2)N=C1c1ccc(F)cc1	8%	8.7%	2	-5%
Cc1ccc(C2CN(C)C3(C(=O)Nc4ccccc43)C23COc2ccccc2C3=O)cc1 (stereo not given)	11%	-3.3%	-27	20%
CCOC(=O)c1c(N)n(C2CC(C)(C)NC(C)(C)C2)c2nc3ccccc3nc12	?	?	?	-5%
O=C(Nc1nc2ccccc2n1CCOc1ccc(Cl)cc1)c1ccco1	-15%	6.9%	-1	22%
COc1ccc(OC)c(C2=NS(=O)(=O)N(C)C(C(=O)N3CCC4(CC3)OCCO4)=C2)c1	-5%	-0.3%	.	4%
CC(=O)c1cccc(NC(=O)CN(c2ccccc2F)S(C)(=O)=O)c1	13%	1.5%	3	0%
Cn1ccnc1SCC(=O)Nc1ccc(Cl)cn1	-5%	-1.9%	-26	-19%
COc1ccc(N(CC2CO2)S(=O)(=O)c2ccc(C)cc2)cc1 (stereo not given)	?	-2.4%	.	0%
O=C(CNCc1ccccc1)Nc1ccc(F)cc1	-5%	0.7%	9	-22%
Cc1cccc(NC(=S)Nn2cnnc2)c1C	0%	-2.0%	-1	2%
O=C(COc1ccc(Cl)cc1)NNC(=O)c1ccncc1	-9%	3.4%	.	.
Cc1cccc(C(=O)Oc2csc(=S)n2C(=O)c2cccc(C)c2)c1	3%	0.6%	1	1%
CC1CCN(c2nc3ccccc3nc2C(C#N)C(=O)OC2CCCCC2)CC1 (stereo not given)	-18%	-9.5%	5	2%
O/N=C1\CCCc2ccc3ccccc3c21	7%	-0.1%	1	-1%
COc1cc(C(=O)Nc2nc(N)n(-c3ccccc3)n2)cc(OC)c1OC	-2%	0.2%	-3	0%
O=C(Nc1nnc(SCC(=O)N2CCCC2)s1)C1CC(=O)N(c2ccccc2)C1 (stereo not given)	-1%	-0.8%	.	-2%
COc1cc2c(cc1NC(C)=O)CCCC2	8%	1.6%	3	-1%
CCCC1C(c2ccccc2)C(C#N)(C#N)C2(C#N)CC1(N)NC2=O (stereo not given)	14%	2.1%	-1	-4%
Cc1cccc(C2=N/C(=C\c3cccs3)C(=O)O2)c1	6%	-1.2%	-4	0%
O=C(CCc1nc2ccccc2s1)OCC(=O)c1ccc[nH]1	?	?	1	-5%
CCOc1ccc(-c2nnn(CC(=O)c3ccc4c(c3)OCCO4)n2)cc1	-19%	1.8%	-4	-3%
CCOCCCNC(=O)c1ccc(OC(C)=O)cc1	-37%	1.7%	0	-6%
O=c1[nH]c(Cc2cccc(C(F)(F)F)c2)nc2ccccc12	11%	-4.2%	.	-14%

Further records follow.
SMILES	Rango release inh	Rango complex inh	GLA inh pH 4.5	miR-21 FLuc
Clc1ccc(NCc2nncn2-c2ccccc2)cc1	-7%	0.7%	4	-3%
Nc1[nH]c(=O)[nH]c(=O)c1N=Cc1ccccc1	?	1.6%	.	.
CCOC(=O)c1sc2nc(Cc3ccc(Cl)cc3)[nH]c(=S)c2c1C	13%	-0.1%	4	0%
CC1=CC2=C(OC1N(C)C)c1cccc3cccc(c13)C2=O (stereo not given)	-3%	9.2%	-7	-5%
O=C(Nc1ccc(Oc2ncnc3cc(Cl)ccc23)nc1)Nc1cccc(C(F)(F)F)c1	-4%	0.1%	-5	1%
CC1CN(C(=O)c2cc(S(=O)(=O)N3CCCCC3)ccc2Cl)CC(C)O1 (stereo not given)	0%	0.1%	.	.
Cc1ccc(Cn2c(=O)c3ccccc3n3c(CCC(=O)NCCN4CCOCC4)nnc23)cc1	-12%	6.5%	.	1%
Cc1ccc(OCCOCCN(C)C)c(Cl)c1	9%	-2.8%	10	-1%
O=C(N1CCCC1)C12CC3CC(CC(Cl)(C3)C1)C2	18%	1.4%	.	0%
CCOC(=O)CSc1nc2ccc(C)cc2[nH]1	5%	?	2	-2%
O=C(Nc1cc(C(F)(F)F)ccc1N1CCOCC1)c1cnccn1	-16%	-3.3%	.	-2%
CCOc1cc(/C=C(\C#N)C(=O)Nc2ccccc2[N+](=O)[O-])ccc1OCc1cccc2ccccc12	.	.	6	-10%
O=C1C2C3C=CC(C2C(=O)N1C1CCCCC1)C1C2C(=O)N(C4CCCCC4)C(=O)C2C31 (stereo not given)	-20%	-1.2%	5	0%
Cc1cc(C(F)(F)F)nc(SCC(=O)c2cccc([N+](=O)[O-])c2)n1	?	-2.6%	-2	-1%
COC(=O)c1c(NC(=O)Cc2ccc(OC)c(S(=O)(=O)N3CCOCC3)c2)sc(C)c1C	13%	0.5%	.	.
O=C(CSc1nnc2scc(-c3ccccc3)n12)NCc1ccc2c(c1)OCO2	1%	1.6%	-6	-1%
COc1ccc(C2(OC)Oc3cc(OC)ccc3C(=O)C2(O)OC)cc1 (stereo not given)	?	-5.2%	.	.
CC(C)(C)c1ccc(OCc2nnc(SCC(N)=O)n2N)cc1	-6%	0.5%	-13	-2%
Cc1c(NC(=O)C(C)OC(=O)c2cc(-c3cccc4ccccc34)nc3ccccc23)c(=O)n(-c2ccccc2)n1C (stereo not given)	-13%	-0.6%	0	-2%
Nc1nnc(SCC(=O)c2ccccc2)s1	11%	1.0%	3	-12%
Cc1cccc(OC(=O)CN2C(=O)C3C4CCC(C4)C3C2=O)c1C (stereo not given)	-14%	-2.5%	-7	0%
NS(=O)(=O)c1ccc(CCNC(=O)c2cnccn2)cc1	-17%	-2.6%	.	0%
Cc1cc(SCC(=O)c2cccs2)nc2ccccc12	?	?	0	-46%
CCNC(=S)N1CCN(c2nc(-c3cccc(OC)c3)cs2)CC1	3%	3.5%	.	17%
COc1ccccc1NC(=O)CSc1nnc(Cn2nnc(-c3ccccc3)n2)n1-c1ccccc1	0%	-8.8%	-15	0%

Retrieved by compound from the list above, 6 records:
SMILES	Rango release inh	Rango complex inh	GLA inh pH 4.5	miR-21 FLuc
Cc1ccc(OCCOCCN(C)C)c(Cl)c1	9%	-2.8%	10	-1%
Nc1[nH]c(=O)[nH]c(=O)c1N=Cc1ccccc1	?	1.6%	.	.
O=C(Nc1ccc(Oc2ncnc3cc(Cl)ccc23)nc1)Nc1cccc(C(F)(F)F)c1	-4%	0.1%	-5	1%
Nc1nnc(SCC(=O)c2ccccc2)s1	11%	1.0%	3	-12%
COc1ccc(C2(OC)Oc3cc(OC)ccc3C(=O)C2(O)OC)cc1 (stereo not given)	?	-5.2%	.	.
Cc1cc(SCC(=O)c2cccs2)nc2ccccc12	?	?	0	-46%

The main list resumes; the four compounds before the break are reprinted first.
SMILES	Rango release inh	Rango complex inh	GLA inh pH 4.5	miR-21 FLuc
NS(=O)(=O)c1ccc(CCNC(=O)c2cnccn2)cc1	-17%	-2.6%	.	0%
Cc1cc(SCC(=O)c2cccs2)nc2ccccc12	?	?	0	-46%
CCNC(=S)N1CCN(c2nc(-c3cccc(OC)c3)cs2)CC1	3%	3.5%	.	17%
COc1ccccc1NC(=O)CSc1nnc(Cn2nnc(-c3ccccc3)n2)n1-c1ccccc1	0%	-8.8%	-15	0%
Cc1nnc(SCC(=O)Nc2cc(C(F)(F)F)ccc2Cl)n1C	-3%	-0.3%	.	-6%
Cc1ccccc1CN1CCC(Oc2ccc(C(=O)N3CCCC3)cc2)CC1	-13%	4.3%	.	1%
O=[N+]([O-])c1ccc(O)c(C2=NNC(c3ccccc3F)C2)c1 (stereo not given)	-3%	0.3%	-16	-9%
CCOc1cc(N2CCOCC2)c(OCC)cc1NC(=O)COC(=O)c1cc(C)oc1C	6%	0.2%	-1	-1%
O=S(=O)(NCc1ccccc1)NCc1cccc(C(F)(F)F)c1	-4%	-3.7%	5	-2%
Clc1ccc(Cl)c(OCCCCNCc2ccccc2)c1	1%	-0.1%	-9	-2%
Cc1ccccc1NC(=S)N(CCCN1CCOCC1)Cc1cccnc1	5%	-0.1%	-7	-1%
CC(=O)c1cccc(NC(=S)NC(=O)c2cccc(Cl)c2)c1	8%	-0.8%	-4	-50%
NC(=O)COC(=O)c1ccccc1OCc1ccccc1Cl	-3%	0.5%	?	-4%
CCOC(=O)C1CCCN(CCC(=O)Nc2ccc(C)c(C)c2)C1 (stereo not given)	-2%	-1.1%	-9	-6%
Cc1cccc(C2=N/C(=C/c3cccs3)C(=O)O2)c1	7%	1.2%	1	1%
Cc1csc(SC(C)C(=O)Nc2ccc(F)cc2Cl)n1 (stereo not given)	6%	-1.1%	.	.
CC(SC(C)C(=O)NN=Cc1c[nH]c2ccccc12)C(=O)NN=Cc1c[nH]c2ccccc12 (stereo not given)	-9%	5.1%	.	.
O=C(Nc1cccnc1)c1noc2c1CCCCC2	1%	2.7%	8	-31%
CC1CCN(S(=O)(=O)N2CCN(C(=O)c3ccc4c(c3)OCO4)CC2)CC1	1%	-2.6%	.	1%
COc1ccc(CCN2C(=O)C3CC=C(C)CC3C2=O)cc1OC (stereo not given)	-1%	0.7%	-4	-11%
NC(=O)c1ccc(NC(=O)CC23CC4CC(CC(Br)(C4)C2)C3)cc1	-11%	2.7%	.	4%
Cc1ccc2[nH]c(C)cc(=S)c2c1	2%	-0.2%	3	17%
CCS(=O)(=O)c1c(S(=O)(=O)CC)c2ccccn2c1C(N)=O	-10%	2.1%	-7	-3%
CN1CCN(NC(=O)CC(C)(C)C)CC1	25%	3.0%	-3	2%
Cc1ccc(NC(=O)CSc2nnc(C3CC3)n2CC2CCCO2)cc1C (stereo not given)	-1%	-0.4%	.	-4%
Cc1ccc(S(=O)(=O)N(C)CC(=O)N2CC(C)OC(C)C2)cc1 (stereo not given)	-3%	-3.2%	.	0%
COc1ccc(C(C(=O)NC2CCCCC2)N(C(=O)CCl)c2ccccc2Cl)cc1 (stereo not given)	-4%	2.5%	-1	-5%
Cc1cc(C(=O)NC2CC(C)(C)Cc3c2cnn3-c2ccc(F)cc2)nn1C (stereo not given)	-7%	2.3%	.	-17%
CC(C)N(Cc1ccccc1)C(=O)CN1c2cccc3cccc(c23)S1(=O)=O	-14%	-0.9%	.	.

No new results follow: 2 of the compounds above.
SMILES	Rango release inh	Rango complex inh	GLA inh pH 4.5	miR-21 FLuc
CCOCCCNC(=O)C(c1ccc(OC)cc1)N(Cc1ccc2c(c1)OCO2)C(=O)c1cnccn1 (stereo not given)	-16%	1.3%	-1	-3%
Cc1noc(C)c1C(=O)Nc1nc(-c2ccc(F)c(F)c2)cs1	-4%	-0.4%	.	.

More records:
SMILES	Rango release inh	Rango complex inh	GLA inh pH 4.5	miR-21 FLuc
CCN(CC)c1ccc2cc(C(=O)O)c(=O)oc2c1	.	.	-6	-8%
C[C@H](CO)N1C[C@H](C)[C@@H](CN(C)Cc2ccc(Cl)c(Cl)c2)Oc2c(NS(=O)(=O)c3ccc(F)cc3)cccc2C1=O	0%	5.5%	.	.
O=C1c2ccccc2C2(c3ccccc3)NCCCN12 (stereo not given)	18%	-2.8%	2	0%
CCCCn1c(N)c(N(CC(C)C)C(=O)c2ccc(N3C(=O)CCC3=O)cc2)c(=O)[nH]c1=O	1%	4.0%	.	.
CCCCC(Sc1nc(N)c(NC(=O)c2ccc(OC)cc2)c(=O)[nH]1)C(=O)O (stereo not given)	-15%	-2.5%	1	2%
CCCC(=O)Nc1ccc(-c2csc(NNC(C)=O)n2)cc1	-1%	-3.7%	-7	-10%
COc1ccc(C)cc1NC(=O)C(Sc1ccccc1)c1ccccc1 (stereo not given)	.	.	-9	0%
COCCNC(=O)/C(C#N)=C/c1ccccc1Br	-7%	2.3%	-1	4%
COc1ccc(N2CC(C(=O)O)CC2=O)cc1 (stereo not given)	1%	1.5%	-20	-1%
O=C(CSc1nc(O)c(C(c2ccccc2)c2ccccc2)c(=O)[nH]1)N1CCOCC1	5%	0.6%	3	0%
